# HIV Env fusion: inhibitors of HIV-1 Env-driven cell-cell fusion, primary screen, HeLa-JRFL effector, CEM21 target cells, luciferase; inhibition, % at 12.3 µM; hit rate 1.1% among 360,000; AID 651610, 2012;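 active = mean replicate inhibition score of at least 50 and every replicate individually at or above 50; inconclusive = only one of the two criteria met; inactive = mean below 50 and not all replicates reaching 50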;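 note: 0% = plate neutral controls and 100% = maraviroc near 300 nM; one replicate is shown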
# PABP polyA inh: PABP poly(A) RNA binding inhibitors, primary screen, biochemical, fluorescence polarization, uHTS; hit rate 1% among 290,000; inhibition, % at 35 µM; Polyadenylate-binding protein 1 (Homo sapiens), P11940;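 active = 50% or more with normal probe brightness, or confirmed in later tests; inconclusive = above 50% with abnormal brightness, or retests that disagree; inactive = below 50% or failed in later tests; about a fifth of its hits are not listed in these tables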;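 note: calls also rest on retests at 20 µM and on dose response follow-up; controls were probe without protein and protein plus probe with vehicle; some compounds called inactive have numbers as strong as hits; many hits fall short of the cut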
# Target sequence (P11940 whole entry, looked up): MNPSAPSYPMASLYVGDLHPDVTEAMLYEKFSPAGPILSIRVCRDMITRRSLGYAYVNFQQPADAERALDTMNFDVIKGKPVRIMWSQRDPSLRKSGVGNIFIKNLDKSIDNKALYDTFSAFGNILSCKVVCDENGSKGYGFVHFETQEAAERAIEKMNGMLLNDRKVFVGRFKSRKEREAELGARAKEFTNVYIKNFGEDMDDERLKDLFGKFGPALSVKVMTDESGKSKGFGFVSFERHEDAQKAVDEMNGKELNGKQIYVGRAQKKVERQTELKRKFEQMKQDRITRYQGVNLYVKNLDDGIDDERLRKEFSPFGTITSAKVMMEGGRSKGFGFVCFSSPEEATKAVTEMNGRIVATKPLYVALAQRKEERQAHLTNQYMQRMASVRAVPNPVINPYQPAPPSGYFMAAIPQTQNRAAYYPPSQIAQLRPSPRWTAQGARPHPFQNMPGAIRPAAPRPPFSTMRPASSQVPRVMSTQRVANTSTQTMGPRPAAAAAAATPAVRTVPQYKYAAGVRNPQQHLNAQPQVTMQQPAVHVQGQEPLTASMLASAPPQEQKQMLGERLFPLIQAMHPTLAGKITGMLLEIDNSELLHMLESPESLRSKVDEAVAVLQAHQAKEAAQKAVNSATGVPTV
# CSC inhib: cancer stem cell viability inhibitors, primary screen, luminescence. cancer stem cell-like cells viability. inhibition, % at 7.5 µM. hit rate 1.1% among 300,000. AID 2717, 2010;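 active = mean at 75% or more and at least half the replicates too; inconclusive = mean and replicates disagree; tested in HMLE shEcad cells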;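 note: 0% = median of negative and 100% = median of positive control wells; the first replicate is given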
# eIF4H FP inh: human eIF4H binding inhibitors, primary screen, translation initiation inhibitor project, biochemical, uHTS, fluorescence polarization | Eukaryotic translation initiation factor 4H (Homo sapiens), Q15056 | eIF4H fluorescence polarization binding assay | inhibition, % at 35 µM | hit rate 0.94% among 290,000 | AID 2012, 2009;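 active = 50% or more with normal probe brightness, or confirmed in later tests; inconclusive = above 50% with abnormal brightness, or retests that disagree; inactive = below 50% or failed in later tests; about a fifth of its hits are not listed in these tables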;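 note: calls also rest on retests at 20 µM and on dose response follow-up; 0% = protein and probe with vehicle and 100% = probe without protein; strong numbers were not always called active; many hits fall short of the cut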
# Rce1 inhib: yeast Rce1p protease inhibitors, primary screen, biochemical, fluorescence, cell-free homogeneous; CAAX prenyl protease 2 (Saccharomyces cerevisiae (strain ATCC 204508 / S288c)), Q03530; yeast membranes, quenched prenylated peptide cleavage fluorescence; calls only; hit rate 0.27% among 290,000;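 active = fall in fluorescence gain of 50% or more versus controls, with final raw signal at or below 3038400; inconclusive = same 50% fall but final raw signal above 3038400; inactive = fall in fluorescence gain under 50%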;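 note: plate controls were neutral control wells for no effect and wells lacking membranes for full effect; tested at 10 µM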
# UUG fidelity: modulators of yeast start codon fidelity, primary screen, whole organism, S. cerevisiae, single point, plate reader. S. cerevisiae UUG-firefly luciferase reporter, luminescence/redox ratio. activity score, % at 18.7 µM. hit rate 0.13% among 350,000;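 active = replicate mean at a twofold rise or more, about +100% in these data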;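 note: firefly luciferase made from a UUG start codon reports start codon fidelity; reporter light over untreated wells divided by growth signal over untreated wells; some hits fall short of that in this replicate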
# MT1-MMP act inh: blockers of MT1-MMP proenzyme processing, primary screen, HT1080 RFP-PRO-GFP cells, GFP/RFP fluorescence. Matrix metalloproteinase-14 (Homo sapiens), P50281. GFP/RFP ratio fluorescence, overnight; percent of plate control window, DMSO zero. GFP/RFP ratio change, % at 20 µM. hit rate 0.061% among 360,000. AID 651647, 2012;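 active = GFP/RFP ratio change of at least 30% with cell ATP level not reduced by more than half and red fluorescence within 50% of control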; note: strong numbers were not always called active
#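 Assay system: HT1080 RFP-PRO-GFP cells | Dosing: 20 µM single dose, 1% DMSO | Incubation: Cells overnight before dosing, compound overnight, 37 °C, 5% CO2 | Evaluation: GFP/RFP fluorescence ratio | Control set: DMSO-only wells and HT1080 RFP-L50D-GFP cell wells as references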
# eIF4H FP inh retest: also measured in eIF4H FP inh; calls as there; inhibition, %; compound at 20 µM; confirmation average;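 mean of two retest wells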
# PABP polyA inh retest: second read-out of PABP polyA inh, no call of its own (marks repeat the call); inhibition, %; compound at 20 µM; confirmation repeats;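 mean of two retest wells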
# MT1-MMP act inh RFP: second read-out of MT1-MMP act inh, no call of its own (marks repeat the call); RFP signal change, %; measured here: RFP expression control read;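 0 = vehicle wells; hits needed this value within 50% of zero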
# An asterisk follows results filed as active; i = inactive; u = inconclusive; x = no result given; & = joins results of further samples. Only part of the results is shown; count on the stated rates, not on these rows.
SMILES,HIV Env fusion,PABP polyA inh,CSC inhib,eIF4H FP inh,Rce1 inhib,UUG fidelity,MT1-MMP act inh,MT1-MMP act inh RFP,others
COc1cc2c(=O)c(-c3ccc(O)cc3)coc2cc1OC1OC(CO)C(O)C(O)C1O (centres undefined),-5,8,9,2,i,-10,0,4,
CCOc1ccc(CN(C)C(=O)CNC(=O)c2sc3ccccc3c2Cl)cc1,-10,x,6,x,x,-9,4,-3,
COc1ccc(/C=C/C(=O)NCCc2nc3ccccc3[nH]2)cc1,-18,16,20,7,i,-10,4,6,
CCc1ccc(C(C)NC(=O)COC(=O)c2ccc(-n3cnnn3)cc2)cc1 (centres undefined),x,x,4,x,x,-11,1,3,
Cc1ccc(Nc2nc(NCCCN3CCOCC3)nc(N)c2[N+](=O)[O-])cc1,x,0,-3,-5,i,-8,-7,3,
O=S(=O)(NC1CCC(NS(=O)(=O)c2c(F)cccc2F)CC1)c1ccc2c(c1)OCCO2 (centres undefined),12,x,-1,x,x,8,4,2,
Cc1ccc2[nH]c(=O)c(Cc3ccccc3)c(O)c2c1,11,-6,7,-4,i,1,0,6,
COC(=O)c1cc(NC(=O)Cc2ccc(OC)cc2)cc(C(=O)OC)c1,x,10,10,-16,i,x,5,6,
CCOc1ccc(CNC(=O)CCCc2cn(C)c3ccccc23)cc1OC,13,3,-16,-4,i,2,0,1,
CCC(C)NC(=O)c1ccc(CS(=O)(=O)Cc2ccc(Cl)cc2)o1 (centres undefined),7,12,-11,3,i,3,1,2,
COc1ccc(S(=O)(=O)Nc2ccc3c(c2)n(C)c(=O)n3C)cc1C,-33,8,x,1,i,x,3,-7,
O=C(Nc1ccc(Oc2ccccc2)cc1)c1csc([C@@H]2O[C@H](CO)[C@H](O)[C@H](O)[C@H]2O)n1,6,x,x,x,x,-16,5,-5,
CC[n+]1ccc(C)c2cc(S(=O)C(F)(F)F)ccc21 (centres undefined),x,73*,-13,u,i,-17,4,2,
O=C(CN(Cc1cccs1)C(=O)CNS(=O)(=O)c1ccccc1)NC1CCCC1,-10,12,-15,-2,i,x,-1,3,
O=C(CSc1nnc(NC(=O)c2c(F)cccc2F)s1)NCC1CCCO1 (centres undefined),1,x,-8,x,i,-5,4,-5,
Nc1nc(N2CCOCC2)nc(N(c2ccccc2)c2ccccc2)n1,-6,-2,-2,-10,i,-32,-1,5,
O=C(CCl)N(C1CCCC1)C1CCS(=O)(=O)C1 (centres undefined),22,3,-2,-4,i,-19,0,0,
CCOc1ccc(C(=O)COC(=O)Cn2cnc3c2c(=O)n(C)c(=O)n3C)cc1,x,x,-14,x,x,-23,5,2,
CC1(C)CC(=O)C(C(=O)CCCCC(=O)C2C(=O)CC(C)(C)CC2=O)C(=O)C1,-57,1,-3,-1,i,-16&1,8,4,
CC1CCN(S(=O)(=O)c2ccc(NC(=O)CNC3CCCCC3)cc2)CC1,-10,27,x,52,i,-9,-4,-5,eIF4H FP inh retest=-3;PABP polyA inh retest=-4
CCN(CC)c1ccc(/C=C2\SC(N)=NC2=O)cc1,-7,u,-9,u,i,-3,-102,8,
COc1ccc(/C=C2\N=C(c3ccccc3)NNC2=O)cc1,-2,3,1,-7,i,-8,-8,-7,
O=C(OCc1ccccc1)N1CCOCCOCCN(C(=O)OCc2ccccc2)CCOCCOCC1,x,-1,29,1,i,34,1,-5,
O=C(c1nc2ccc(Cl)cn2c1CN1CCCC1)N1CCc2ccccc2C1,14,u,1,u,i,-22,-13,4,
COc1cc(CN2CCNC(=O)C2CC(=O)N(C)Cc2cccnc2)cc(OC)c1 (centres undefined),16,-4,1,6,i,-5,2,4,
CCN1C(=O)[C@H]2[C@@H](c3ccc(OC)cc3)N[C@]3(CCCN(Cc4ccccc4)C3=O)[C@H]2C1=O,-5,x,x,x,x,-24,-1,9,
C=CCN1C(=O)/C(=C\c2ccc(Cl)cc2)N=C1SCC(=O)NCCC,x,2,-4,-10,i,-13,0,2,
COc1ccccc1-c1cn[nH]c1-c1ccc(OCc2ccccc2F)cc1O,-30,5,93*,-9,i,-24,7,-4,
CCOC(=O)C1CCN(c2nc3ccccc3nc2C(C#N)C(=O)OC(C)COC)CC1 (centres undefined),x,-2,-5,-5,i,-7,-24,-16,
Cc1ccnc(NC(=O)c2ccc([N+](=O)[O-])s2)c1,-14,12,3,4,i,-15,1,-11,
COc1ccc(-c2cnn(C3CCS(=O)(=O)C3)c2N)cc1 (centres undefined),x,0,-8,2,i,-4,9,5,
CC(C)CNC(=O)c1ccccc1NC(=O)CN(c1ccccc1)S(=O)(=O)N(C)C,16,-8,-3,-5,i,x,-3,1,
Cc1ccc2c(c1)[nH]c1c(=O)n(CCCN3CCOCC3)cnc12,x,-3,-12,-1,i,-10,-1,-2,
CC(=O)CC[C@@H](C)O[C@@H]1OC(C)[C@H](O)CC1O (some centres undefined),8,x,-14,x,i,-20,-1,2,
Cc1ccc(S(=O)(=O)N2CCOCC2)cc1NC(=O)Cn1ccsc1=N,x,1,3,12,i,-11,-3,6,
CN(C)c1ccc(CNn2cnnc2)cc1,1,-4,-7,10,i,-30,0,1,
COc1ccc(/C=N/NC(=O)c2ccc(CSc3nc(C)cc(C)n3)cc2)c(OC)c1OC,-14,16,-10,-5,i,x,1,0,
Cc1nnc(SCC(N)=O)n1CCc1ccccc1,-59,0,12,-5,i,-13,3,0,
CCN(CC)CCNC(=O)c1ccc(CS(=O)(=O)c2ccc(Br)cc2)o1,12,13,43,13,i,5,0,3,
Cc1cc(=O)[nH]c(-c2ccccc2O)n1,x,6,x,-8,i,-1,6,4,
Cc1csc(NC(=O)CSc2nnc(-c3ccoc3C)n2Cc2ccco2)n1,x,7,x,3,i,-26,-4,2,
COc1ccc(C(=O)Nc2ccc(Oc3ncnc4sc(-c5ccccc5)cc34)cc2)cc1OC,-5,3,31,-6,i,x,-2,-4,
COCC1CCN(C(=O)c2ccc3oc(Cc4ccc(Cl)cc4)nc3c2)C1 (centres undefined),-9,0,-3,-15,i,6,-2,-4,
N#Cc1ccc(-c2nc3ccc(Br)cn3c2Cc2ccccc2)cc1,-18,x,x,x,x,17,-3,-3,
Cc1ccc(C(=O)N(CC(=O)NC2CCCC2)c2ccc(F)cc2)s1,-7,12,-4,5,i,-12,1,1,
CC(C)C[C@H](NC(=O)c1[nH]cnc1C(=O)N[C@@H](Cc1ccccc1)C(=O)OCc1ccccc1)C(=O)OC(C)(C)C,44,-6,13,7,i,-6,-17,-15,
CCN1CCN(CC(=O)N2N=CCC2c2ccccc2)CC1 (centres undefined),-5,-4,-2,-4,i,1,0,3,
COc1ccc(CNC(=O)Cn2cc(C(F)(F)F)ccc2=O)cc1OC,6,2,0,-6,i,-11,-2,-3,
CCCC(c1nnnn1Cc1ccco1)N1CCN(C2CCCC2)CC1 (centres undefined),x,33,36,-4,i,-7,3,7,
O=C(Nc1nccs1)C1CCCN1/C=C/C(=O)C(F)(F)F (centres undefined),-1,11,11,-11,i,-19,-4,1,
COc1ccc(CCNC(=O)C2CCCN(S(=O)(=O)c3cccc4nonc34)C2)cc1OC (centres undefined),x,8,-14,8,i,-13,3,3,
CCCC(=O)Nc1c(-c2ccccc2)c(=O)c(C)nn1-c1ccccc1,1,-7,-8,-7,i,x,-1,0,
CCSc1nnc(SCC(=O)N2CCN(C(=O)c3ccco3)CC2)s1,-9,9,x,0,i,-15,-3,1,
CC(C)[C@H](NC(=O)OC(C)(C)C)C(=O)N/N=C/c1cccc2nccnc12,x,-4,5,-4,i,-8,6,1,
CCC(C(=O)OC)n1cnc2c(nnn2-c2ccc(F)cc2)c1=O (centres undefined),10,-12,-11,-1,i,-8,3,0,
COc1ccccc1S(=O)(=O)Nc1cccc(-c2nnc3n2CCCCC3)c1,x,11,-1,1,i,-17,2,6,
COc1cccc(C2=CC(c3ccc(N(C)C)cc3)n3ncnc3N2)c1 (centres undefined),x,19,0,10,i,x,x,x,
CN1CCN(S(=O)(=O)c2cccc(C(=O)O)c2)CC1,-19,-4,-11,-5,i,-14,-1,3,
Cc1cnc(C(=O)OCC(=O)c2ccc(Br)s2)cn1,0,x,-10,x,i,-16,-2,4,
COc1ccc(CSC2=NCCN2)cc1Br,-4,7,-9,7,i,-5,2,5,

# Sorted by count of non-hydrogen atoms (ascending): some entries from above
SMILES,HIV Env fusion,PABP polyA inh,CSC inhib,eIF4H FP inh,Rce1 inhib,UUG fidelity,MT1-MMP act inh,MT1-MMP act inh RFP,others
Cc1ccc2[nH]c(=O)c(Cc3ccccc3)c(O)c2c1,11,-6,7,-4,i,1,0,6,
O=C(Nc1nccs1)C1CCCN1/C=C/C(=O)C(F)(F)F (centres undefined),-1,11,11,-11,i,-19,-4,1,
O=C(OCc1ccccc1)N1CCOCCOCCN(C(=O)OCc2ccccc2)CCOCCOCC1,x,-1,29,1,i,34,1,-5,

# Next part:
SMILES,HIV Env fusion,PABP polyA inh,CSC inhib,eIF4H FP inh,Rce1 inhib,UUG fidelity,MT1-MMP act inh,MT1-MMP act inh RFP,others
CCOCC(=O)Nc1cccc(NC(C)=O)c1,x,-4,-13,-7,i,1,1,2,
Cc1ccc(CC2CC(=O)N(c3ccncc3)C2=O)cc1 (centres undefined),-25,0,-7,4,i,-19,-6,-2,
Cc1cc(-c2nnc(SCC(=O)Nc3ccc(F)cc3)n2N)n[nH]1,3,-10,-10,-6,i,-19,-1,1,
CCN(CC)S(=O)(=O)c1ccc(-c2nnc(SCC(=O)c3ccc(OC)cc3)o2)cc1,-10,-10,-1,3,i,-11,4,3,

# Molecules shown so far that have fluorine, in the order listed:
SMILES,HIV Env fusion,PABP polyA inh,CSC inhib,eIF4H FP inh,Rce1 inhib,UUG fidelity,MT1-MMP act inh,MT1-MMP act inh RFP,others
O=S(=O)(NC1CCC(NS(=O)(=O)c2c(F)cccc2F)CC1)c1ccc2c(c1)OCCO2 (centres undefined),12,x,-1,x,x,8,4,2,
CC[n+]1ccc(C)c2cc(S(=O)C(F)(F)F)ccc21 (centres undefined),x,73*,-13,u,i,-17,4,2,
O=C(CSc1nnc(NC(=O)c2c(F)cccc2F)s1)NCC1CCCO1 (centres undefined),1,x,-8,x,i,-5,4,-5,
COc1ccccc1-c1cn[nH]c1-c1ccc(OCc2ccccc2F)cc1O,-30,5,93*,-9,i,-24,7,-4,
Cc1ccc(C(=O)N(CC(=O)NC2CCCC2)c2ccc(F)cc2)s1,-7,12,-4,5,i,-12,1,1,
COc1ccc(CNC(=O)Cn2cc(C(F)(F)F)ccc2=O)cc1OC,6,2,0,-6,i,-11,-2,-3,
O=C(Nc1nccs1)C1CCCN1/C=C/C(=O)C(F)(F)F (centres undefined),-1,11,11,-11,i,-19,-4,1,
CCC(C(=O)OC)n1cnc2c(nnn2-c2ccc(F)cc2)c1=O (centres undefined),10,-12,-11,-1,i,-8,3,0,
Cc1cc(-c2nnc(SCC(=O)Nc3ccc(F)cc3)n2N)n[nH]1,3,-10,-10,-6,i,-19,-1,1,
